# TRPML1 agonist – human mucolipin-1 channel agonism; TRPML1-expressing cells, Ca2+ dye fluorescence, FDSS; host cell line not named in the record; reference of the full effect not given here; activation, % (test concentration not listed); actives 0.12% (n = 410,000); AID 624414; in the data active = activation above about 50%; inconclusive = about 30% to 50%; inactive = below about 30%; note: 0% is about no effect; the text of the record puts the active cut at 80%
#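 Tetracycline-induced TRPML1-DL cells are seeded and incubated overnight before loading with a no-wash Ca2+ dye and quencher. Agonist activity is taken from the 110 s fluorescence read following compound pin-transfer on an FDSS, before EC80 54-4 challenge.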
# ClpP mod – qHTS Assay for Activators of ClpP. Potency, µM (highest dose often 57.5 µM), for inactives: at the highest dose activity change, negative = active. AID 651965, 2013. purified B. subtilis ClpP, FRET peptide cleavage, 20 min. actives 1.9% (n = 340,000). ATP-dependent Clp protease proteolytic subunit (Bacillus subtilis (strain 168)), P80244; active = well fitted falling curve with a large enough effect; inconclusive = small, poorly fitted or top-dose-only effect; inactive = no such curve, though single readings can be large or run the other way; note: potency is the fitted concentration of half-maximal effect; the source files actives as falling curves though it sought activators and does not explain the sign; nearly all actives have a fitted effect of over 65% in size; many hits overshoot -100%
# Target sequence (P80244 whole entry, looked up): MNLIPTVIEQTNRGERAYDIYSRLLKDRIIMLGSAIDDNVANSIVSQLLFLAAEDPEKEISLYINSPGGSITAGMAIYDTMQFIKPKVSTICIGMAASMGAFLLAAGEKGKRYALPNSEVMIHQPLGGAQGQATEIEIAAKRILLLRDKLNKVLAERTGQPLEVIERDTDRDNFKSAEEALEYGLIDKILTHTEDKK
#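 FRET quenching reversal measured ClpP activation: 10 microg/mL B. subtilis ClpP at pH 8 with the FRET-FV decapeptide, read at 430 nm after 320 nm excitation. The 20-min minus 0-min signal was scaled between DMSO/no-enzyme wells and ADEP (5.8 microM final).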
# Menin-MLL FL inh – displaces fluorescein MLL peptide from human menin; AID 1766; FP activity change, % at 61.4 µM; 290,000 tested, under 10 active; Fluorescence polarization, fluorescein-MLL peptide displacement from menin; inconclusive = falling polarisation curve, or a change in total fluorescence; inactive = total fluorescence flat and polarisation flat or rising; no compound was filed as active; the % refers to the polarisation; negative = inhibition;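 note: % of control where 0% means no effect; inhibitors lower the polarisation; unlabelled MLL peptide was the positive control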
# TRPML1 blocker – inhibitors of human TRPML1 channel | Q9GZU1 | TRPML1-inducible cells, Ca2+ dye fluorescence, FDSS; active compounds read low; inhibition of EC80 agonist-evoked calcium signal | activity change, negative = inhibition, % (test concentration not listed) | actives 0.02% (n = 390,000); in the data active means activity change below about -50%; inconclusive means about -30% to -50%; inactive means above about -30%;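 note: stimulus is agonist 54-4 at its EC80 concentration; % is set by controls: 0 for no effect and ±100 for the full control effect; compound concentration not given in the record; the text of the record puts the active cut at -80%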
#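 Tet-induced TRPML1-DL cells loaded with Ca8 no-wash calcium dye were read kinetically on FDSS. Compound addition was followed by EC80 agonist 54-4 (4 uM final); inhibition was read over 110 s.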
# Sfp PPTase inh – blocks B. subtilis Sfp PPTase activity. AID 1490. actives 3.5% (n = 310,000). Q9F4F7. Biochemical Sfp PPTase activity, qHTS. Potency, µM, without a hit: max response, negative = inhibition, hits mostly inhibitors; active = well fitted inhibition curve with a large enough effect; inconclusive = small, poorly fitted or top-dose-only effect, or another doubt; inactive = no such curve, though single readings can be large or run the other way;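 note: the enzyme is Sfp with the accession as filed and its product quenches rhodamine fluorescence; potency is the fitted concentration of half-maximal effect; 0% = enzyme reaction without inhibitor and -100% = no enzyme wells; top concentration of the series not given in the record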
#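 Buffer: 50 mM Hepes-Na pH 7.6, 10 mM MgCl2, 0.01% Nonidet P-40, 0.01% BSA. Enzyme 15 nM, pre-exposed to compound 15 min; substrates then added and fluorescence change tracked over 30 min.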
# PINK1 modulator – modulators of PINK1 expression. PINK1 immunofluorescence, high-content cytometry, 24 h. actives 0.2% (n = 410,000). Potency, µM (highest dose often 76.6 µM), without a hit: top-dose activation (PINK1 increase), hits mostly activators. AID 624263; active = well fitted activation curve with a large enough effect; inconclusive = small, poorly fitted or top-dose-only effect; inactive = flat fitted curve, though single readings scatter; cell line not stated here;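 note: potency is the fitted concentration of half-maximal effect; % of control where 0% means no effect; nearly all actives have a fitted effect of over 65% in size; a mitochondrial uncoupler was the plate control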
#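 Fluorescence from anti-PINK1 antibody, together with nuclear and cell stains, was scanned on a laser-scanning cytometer. Before staining, stable-line cells were incubated 24 hours with compounds at 5 concentrations; primary antibody 12 h at 10 degrees C.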
# TRPV1 potentiator – enhances activation of the human vanilloid receptor TRPV1 | TRPV1-expressing cells, Fluo-8 calcium influx, capsaicin EC20 potentiation; host cell line not named in the record; control for the full effect not named in the record | potentiation, % at 8.33 µM | actives 0.02% (n = 320,000); active means potentiation above 80%; inconclusive means 30% to 80%; inactive means below 30%; note: 0% is about no effect
# Target sequence (Q8NER1 whole entry, looked up): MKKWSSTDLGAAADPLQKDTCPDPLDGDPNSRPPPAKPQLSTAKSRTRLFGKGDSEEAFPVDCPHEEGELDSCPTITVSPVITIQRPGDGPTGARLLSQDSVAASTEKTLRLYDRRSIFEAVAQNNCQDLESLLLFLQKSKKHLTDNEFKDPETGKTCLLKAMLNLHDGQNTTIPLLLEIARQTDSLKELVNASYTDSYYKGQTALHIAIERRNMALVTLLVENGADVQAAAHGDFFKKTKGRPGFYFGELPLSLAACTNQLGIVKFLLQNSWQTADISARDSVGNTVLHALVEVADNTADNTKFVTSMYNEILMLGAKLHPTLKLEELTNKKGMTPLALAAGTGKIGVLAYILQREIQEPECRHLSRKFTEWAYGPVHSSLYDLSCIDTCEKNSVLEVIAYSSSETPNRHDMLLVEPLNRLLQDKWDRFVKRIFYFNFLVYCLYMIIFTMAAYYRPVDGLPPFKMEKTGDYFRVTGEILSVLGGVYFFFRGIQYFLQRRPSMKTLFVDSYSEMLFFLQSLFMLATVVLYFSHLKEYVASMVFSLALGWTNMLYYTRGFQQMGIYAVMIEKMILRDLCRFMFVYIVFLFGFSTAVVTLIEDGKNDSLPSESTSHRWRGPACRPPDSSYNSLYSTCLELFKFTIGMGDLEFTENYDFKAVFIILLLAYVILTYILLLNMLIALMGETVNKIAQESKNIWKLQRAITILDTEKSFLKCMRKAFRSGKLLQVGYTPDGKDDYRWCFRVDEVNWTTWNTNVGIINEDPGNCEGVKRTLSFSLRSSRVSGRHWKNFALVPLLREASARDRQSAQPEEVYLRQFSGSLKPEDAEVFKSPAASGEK
#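 TRPV1-expressing cells were cultured overnight at 35.5C and loaded with Fluo-8 calcium dye for 40 to 90 min at room temperature. After a 10 s baseline, compound was added and calcium influx was read kinetically for 3 min (ex 480/em 520 nm).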
# * marks the source's active call; other numbers are inactive results; ? = inconclusive; . = no result given; & = joins results of further samples; [ ] = another dose, or the depositor's remark.
smiles	TRPML1 agonist	ClpP mod	Menin-MLL FL inh	TRPML1 blocker	Sfp PPTase inh	PINK1 modulator	TRPV1 potentiator
COc1cc(/C=N/NC(=O)c2ccccc2)ccc1O	1.3	-4.7%	-2.4	18.4	8.6%	0.2%	2.0
O=Cc1c(N2CCC3(CC2)OCCO3)nc2ccccn2c1=O	0.8	.	1.8	-4.7	14.1%	-0.6%	-5.2
CC(=O)N=c1c(C#N)cc2c(=O)n3cccc(C)c3nc2n1CCCOC(C)C	0.7	.	6.2	-2.3	-6.8%	-1.3%	7.0
CC(=O)c1cccc(NC(=O)c2ccc(OC3CSC3)cc2)c1	-0.8	.	2.1	-3.4	17.1%	3.3%	-5.8
CN(Cc1ccc(C(F)(F)F)cc1)C(=O)c1ccc(Oc2ccccc2)cc1	.	-0.9%	-1.1	.	9.1%	17.5%	-36.4
CCn1c(NCc2c[nH]c3ccccc23)nc2ccccc21	0.2	-0.6%	.	-13.0	.	-0.6%	.
COc1ccc(-c2nc(CCNC(=O)c3ccc(Br)o3)cs2)cc1	3.3&-0.1	?	-3.9	-10.3&6.4	-14.7%	0.4%&-1.9%	-13.7
COc1ccc(C2=NN(C(=O)CN3CCCC3)C(c3ccc(OC)cc3)C2)cc1 (stereo not given)	0.2	.	4.4	-3.4	12.9%	0.2%	-0.5
O=C(NC(=S)Nc1ccc(Oc2ccc(Cl)cc2)cc1)c1ccccc1	0.3	-0.9%	1.8	-8.6	9.6%	11.3%	11.3
CN(Cc1ccco1)S(=O)(=O)c1cc(F)ccc1CN1C(=O)c2cccnc2C1=O	3.4	0.0%	-3.5	-2.8	3.9%	8.5%	2.1
Cc1ccc(C(=O)c2oc3ccccc3c2NC(=O)c2cc(-c3cc(C)ccc3O)n[nH]2)cc1	0.5	2.5%	10.9	2.3	-29.7%	5.0%	0.0
O=C(CCc1nc2sc3c(c2c(=O)[nH]1)CCCC3)NCCc1ccccc1	0.1	-11.4%	.	-11.0	.	0.2%	12.1
CCOc1ccc(Br)cc1S(=O)(=O)Nc1ccccc1N1CCOCC1	3.9	0.3%	-0.6	18.6	-6.9%	1.0%	6.6
COc1ccccc1N=NC1C(=O)N(C(N)=S)N=C1C (stereo not given)	-0.6	-1.0%	11.6	-2.8	-28.7%	-0.5%	2.6
O=c1[nH]c(-[n+]2ccccc2)c(/C=N/NC([S-])=Nc2ccccc2)s1	3.1	1.2%	?	-1.5	?	-2.0%	-10.2
CCOc1ccc(N=C(C)C2=C(O)c3ccccc3C2=O)cc1	1.7	.	-1.8	-2.7	?	5.3%	3.7
COCCNC(=O)c1cc2c(Cl)nc3ccc(C)cc3c2s1	1.1	-1.4%	.	-14.7	.	2.7%	.
COc1ccc(CNC(=O)C2CCCN(S(=O)(=O)c3ccc4c(c3)CCCN4C(C)=O)C2)cc1 (stereo not given)	-0.4&0.0	-1.4%&0.2%	6.3	-1.5&3.6	5.3%	-1.0%&-0.3%	3.7
OC(COCCC12CC3CC(CC(C3)C1)C2)CN1CCCC1 (stereo not given)	1.1	-2.8%	-2.1	-4.5	-3.3%	0.0%	1.5
O=C(Nc1nc(-c2cc(Cl)sc2Cl)cs1)c1ccc(Br)s1	0.9	-2.9%	4.4	19.3	-23.2%	?	-5.7
O=S(c1ccccc1)C(c1ccccc1)c1ccccc1 (stereo not given)	1.1	15.8µM*	.	-8.8	.	2.2%	.
Cc1ccc(NC(=O)COc2ccc(-n3ccnc3)cc2)cc1Cl	-1.1	1.3%	-0.7	-0.6	-3.9%	0.3%	-7.7
CC(=O)c1ccc(N(C(=O)CNC(=O)c2ccco2)C(C(=O)NC2CCCC2)c2ccncc2)cc1 (stereo not given)	0.1	.	4.9	23.8	12.2%	1.1%	-0.5
COc1ccc(CC2NCCC3(O)CCCCC23)cc1 (stereo not given)	0.2	-0.1%	-0.1	-0.9	-12.9%	0.0%	1.0
CCc1cc(=O)oc2cc(OCC(=O)NCC3CCC(C(=O)O)CC3)ccc12 (stereo not given)	.	5.2%	5.0	.	7.0%	0.9%	-0.2
CN(C)S(=O)(=O)c1ccc(C(=O)Nc2nnc(-c3ccco3)o2)cc1	-0.5	.	-0.3	4.8	-18.7%	-0.5%	-28.4
CCC1Oc2ccccc2N(CC(=O)NCCCN2CCN(Cc3ccccc3)CC2)C1=O (stereo not given)	0.4	-1.1%	-2.0	14.1	10.9%	0.1%[38.3 µM]	4.7
COCCNC(=O)C(OC(=O)CC1Sc2ccccc2NC1=O)c1ccccc1 (stereo not given)	0.2	-1.0%	0.6	-9.3	-17.0%	-2.2%	0.1
CC(=O)c1cccc(NC(=O)C23CC4CC(C2)CC(n2cncn2)(C4)C3)c1	0.1	-1.0%	-11.2	22.1	13.2%	2.4%	0.9
Cc1cccc(C)c1NC(=O)CNC(=O)C(NC(=O)c1ccc(C(C)(C)C)cc1)C(C)C (stereo not given)	0.8	-1.3%	5.2	-9.5	18.8%	11.1%	-4.6
COc1ccc(OC)c(NC(=O)CSc2nc3ccccc3c3nc4ccccc4n23)c1	.	.	6.6	.	-8.1%	.	-6.0
CC(C)(C)c1cc(P(=O)(c2ccccc2)c2ccccc2)ccc1O	2.7	.	2.8	6.2	26.5%	-1.6%	.
Cn1cc(CCC(=O)N2CCCC(N3CCN(c4ccccc4F)CC3)C2)cn1 (stereo not given)	-0.7	-0.8%	.	-3.4	13.5%	-1.1%	1.1
Cc1oc(-c2ccccc2F)nc1Cn1c(SCc2ccccc2F)nc2ccncc21	-0.9	-26.4%	.	-4.4	.	1.2%	.
CCOc1ccc(-n2c(=O)c3c(C)c(C)sc3n(CC(=O)c3ccccc3)c2=O)cc1	-0.6	0.5%	.	5.5	.	6.3%	.
COc1ccccc1CNCC(O)Cn1c2ccccc2c2ccccc21 (stereo not given)	0.9	-7.7%	-1.9	-13.8	-73.8%	-1.2%	-17.2
O=C(Nc1ccc(S(=O)(=O)Nc2cnc3ccccc3n2)cc1)c1ccc([N+](=O)[O-])cc1Cl	0.2	-2.4%	-0.4	-22.6	32.0%[activator]	1.6%	-4.0
COc1ccccc1N1CCN(c2ncnc3onc(-c4cccc(Cl)c4)c23)CC1	-0.6	-12.5%	.	29.7	.	0.9%	.
COc1ccc2c(c1)CSC(c1ccccc1)C2=O (stereo not given)	-1.0	-0.6%	.	12.3	.	1.1%	.
COc1ccc(OC)c(S(=O)(=O)Nc2ccccc2F)c1	-0.2	1.5%	2.9	1.0	17.9%	-2.1%[38.3 µM]	-9.5
CCC(c1c(C)[nH]oc1=O)c1c(C)[nH]oc1=O	0.1	0.3%	?	5.5	-17.6%	0.8%	-2.6
CCC(Sc1ccc2nnc(-c3ccc(OC)c(OC)c3)n2n1)C(=O)O (stereo not given)	-0.2	0.3%	1.0	-5.2	-17.1%	8.2%[38.3 µM]	0.2
CC1CC(NS(=O)(=O)c2cccs2)CC(C)(C)C1 (stereo not given)	1.7	-1.7%	-0.3	15.9	7.6%	2.1%[38.3 µM]	-8.2
COc1ccccc1NC(=O)CCNS(=O)(=O)c1ccc2c(c1)CCN2C(=O)C1CC1	-0.9	-0.9%	.	-25.8	.	0.9%	.
O=C(CNC(=O)c1ccc(Br)cc1)NCc1cccnc1	-0.3	.	2.7	11.8	9.5%	0.2%	-5.2
CC1(C)Cc2c(cnn2-c2ccc(F)cc2)C(NC(=O)CCn2cncn2)C1 (stereo not given)	0.8	3.9%	.	-2.3	16.9%	3.2%	2.4
Cc1cccc(C)c1OCCN1CCOCC1	.	0.3%	-2.6	.	-26.4%	0.9%	0.8
CCCc1ccc(NS(=O)(=O)c2c(C)oc(C)c2C(=O)OC)cc1	0.7	-1.9%	0.6	5.5	-19.3%	4.2%	-3.1

# Compound profiles, from the list above. Screens in order: TRPML1 agonist | ClpP mod | Menin-MLL FL inh | TRPML1 blocker | Sfp PPTase inh | PINK1 modulator | TRPV1 potentiator
# CC1(C)Cc2c(cnn2-c2ccc(F)cc2)C(NC(=O)CCn2cncn2)C1 (stereo not given) reads 0.8 | 3.9% | . | -2.3 | 16.9% | 3.2% | 2.4
# CCCc1ccc(NS(=O)(=O)c2c(C)oc(C)c2C(=O)OC)cc1 reads 0.7 | -1.9% | 0.6 | 5.5 | -19.3% | 4.2% | -3.1

# Other structures:
smiles	TRPML1 agonist	ClpP mod	Menin-MLL FL inh	TRPML1 blocker	Sfp PPTase inh	PINK1 modulator	TRPV1 potentiator
CN1/C(=C/C2CC(=O)NC2=O)C(C)(C)c2ccccc21 (stereo not given)	-0.1	-1.6%	0.2	1.6	-19.0%	13.3%[38.3 µM]	8.5
COc1ccc(Br)cc1/C=N/n1c(COc2ccccc2)n[nH]c1=S	1.2	-2.6%	0.0	0.7	1.8%	0.1%	1.0
CCS(=O)(=O)N1CCN(c2ccc(C(=O)N3CCOCC3)cc2[N+](=O)[O-])CC1	0.2	0.4%	3.6	-14.7	16.4%	2.0%	-0.1
CN(C)c1ccc(-c2ccc(C3C4C=CCCC4(C)C(=O)N3Cc3ccccc3)c(F)c2)cc1 (stereo not given)	1.0	.	4.1	39.0	?	.	.
CCN(CC)CCOCCn1c(C)ccc1C	0.0	.	.	0.6	.	-0.2%	.
CCOc1cc(C(=O)Nc2cc(=O)n(C)c(=O)n2C)cc(OCC)c1OCC	-0.4	-0.9%	4.5	-15.4	19.5%	1.8%	4.3
Cc1cnccc1CN(C)Cc1cn(C)nc1-c1ccc(Oc2ccccc2)cc1	1.1	.	-2.7	16.8	-9.2%	-0.7%	-9.6
CCOc1cccnc1Sc1ccccc1	2.1	0.6%	.	7.4	.	2.6%	.
COc1ccc(Cl)cc1C(=O)NCc1cnn(C)c1C	-0.6	-0.8%	3.4	9.3	1.8%	-0.4%	17.1
O=C(COC(=O)c1c2c(nc3ccccc13)/C(=C\c1cccs1)CCC2)Nc1ccccc1Cl	1.5	7.5%	6.1	0.6	15.8%	5.0%	3.8
Cc1ccc(-c2nnn(CC(=O)N(CC(=O)NC3CCCCC3)c3ccc(F)c(Cl)c3)n2)o1	-0.5	0.1%	2.7	10.1	27.4%	2.2%	4.5

# Compounds were not picked by outcome (roughly 4.4% active in at least one column).
